HPGD block: qHTS Assay for Inhibitors of HPGD (15-Hydroxyprostaglandin Dehydrogenase) | purified HPGD, NADH fluorescence kinetic, PGE2 substrate | Potency, µM, inactives show top-dose activity change, negative = inhibition, most hits filed as inhibitors | actives 4.3% (n = 150,000) | AID 894, 2007; active = well fitted inhibition curve with a large enough effect (not every such curve was filed as active); inconclusive = small, poorly fitted or top-dose-only effect, or another doubt; inactive = no such curve, though single readings can be large or run the other way;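 further: top concentration of the series not given in the record; plate controls included wells without enzyme; inactives centre near -10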
Target sequence (P15428 whole entry, looked up): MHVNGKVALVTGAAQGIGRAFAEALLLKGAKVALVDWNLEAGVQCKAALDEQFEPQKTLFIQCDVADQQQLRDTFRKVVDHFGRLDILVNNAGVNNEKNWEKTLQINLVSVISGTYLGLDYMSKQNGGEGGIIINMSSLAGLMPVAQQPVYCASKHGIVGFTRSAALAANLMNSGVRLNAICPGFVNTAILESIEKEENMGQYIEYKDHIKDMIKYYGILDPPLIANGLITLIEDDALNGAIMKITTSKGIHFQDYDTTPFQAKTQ
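NADH formation kinetics: reaction with 30 uM PGE2 and 1 mM NAD+ (final), 20 nM enzyme, Tris-HCl pH 8 with Tween 20, after 15 min compound preincubation at room temperature. Fluorescence change, last versus first of five reads.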
Starred values were filed as active, the others as inactive; u = inconclusive; & = joins results of further samples. On the % scale 0 is the no-effect control and ±100 the full control effect; potency means the concentration at half of the fitted maximal effect.

SMILES	HPGD block
CCc1cc(Br)ccc1NC(=O)C1CCCO1 (stereo unspecified)	-11.8%
O=C(Nc1ccc(Cl)c(Cl)c1)Nc1cc(S(=O)(=O)N2CCOCC2)ccc1N1CCCC1	-21.2%
CCOc1ccc(S(=O)(=O)n2nnc3ccccc32)cc1C	-5.3%
CCOc1ccc2[nH]c(=O)c(CN(C(=O)N3CCOCC3)C3CC3)cc2c1	u
C/C(=N\NC(=O)Cc1ccc(F)cc1)c1ccc(F)cc1	-3.3%
O=S1(=O)CCC(NC(=S)N2CCOCC2)C1 (stereo unspecified)	-6.8%
CN1CCN(S(=O)(=O)c2cccc(C(=O)Nc3sc4c(c3-c3nc5ccccc5[nH]3)CCCC4)c2)CC1	-16.4%
COc1nnc(-c2ccccc2)s1	-13.7%
Cc1cc(OCC(=O)O)c2cccc(C)c2n1	-12.1%
COc1ccc(S(=O)(=O)Nc2ccccc2C)cc1	-1.1%
Cc1ccc(C(=O)CC(C(=O)O)n2ccc(C)n2)cc1 (stereo unspecified)	0.1%
Cc1cc(OCc2nc(-c3cccnc3)no2)c(C)cc1Br	-9.7%
C#CCOCCOCCOCCNc1nc(N2CCN(C(=O)[C@H]([C@@H](C)CC)n3cc(CCCCN)nn3)CC2)nc(N2CCN(C(=O)[C@H](C)n3cc(CCC(=O)O)nn3)CC2)n1	-7.5%
Cc1ccc(C)c(-n2ccnc2SCC(=O)O)c1	-6.0%
Cc1ccc(C(=O)COc2ccccc2C(=O)Nc2ccccc2)cc1	-2.9%
COc1ccc(S(=O)(=O)N2CCCC(C(=O)Nc3ccc(NC(=O)c4ccccn4)cc3)C2)cc1 (stereo unspecified)	-25.1%
Cc1nn(-c2ccccc2)c2sc(C(=O)c3c(N)n(C)c(=O)n(C)c3=O)cc12	-21.6%
CN(c1ccc(C(=O)NCCSCc2ccccc2)cc1)S(=O)(=O)c1ccccc1	-27.8%
COC(=O)C1C(=O)c2c([nH]c(C(=O)OC3CCCC3C)c2C)CC1C (stereo unspecified)	-4.9%
O=C(Cn1cnc2scc(-c3ccccc3)c2c1=O)N1CCOCC1	2.7%
O=Cc1cn(-c2ccccc2)nc1-c1cc2ccccc2oc1=O	u
O=C1c2ccccc2C(=O)N1CCCCN(C(=O)c1cc2ccccc2oc1=O)c1ccc(F)cc1F	-4.2%
O=C(CSc1nnnn1C1CCCC1)NCc1ccccc1	-15.6%
COc1ccccc1CC(=O)Nc1ccc(OC)c(OC)c1	-3.1%
CCCc1nc2ccccc2c(=O)n1/N=C/c1ccc(O)cc1	-13.4%

Continued, starting with the last 2 of the part before.
SMILES	HPGD block
COc1ccccc1CC(=O)Nc1ccc(OC)c(OC)c1	-3.1%
CCCc1nc2ccccc2c(=O)n1/N=C/c1ccc(O)cc1	-13.4%
CCOc1ccc(NC(=O)CN(c2ccc(OC)cc2)S(C)(=O)=O)cc1	-16.2%
CC(=O)N(Cc1cc(=O)[nH]c2ccccc12)c1ccccc1	-6.9%
CCCNc1nc(C)nc2c1cnn2CCc1ccccc1	-7.6%
CC1(C)CC(=O)C(N=Nc2ccc3ncsc3c2)=C(O)C1	-23.1%
CCOC(=O)C1C(C(=O)OC)=C(CC(C)C)c2ccccc2N1S(=O)(=O)C(F)(F)F (stereo unspecified)	-8.3%
COc1ccc(OC)c(NC2c3ccccc3C(=O)N2Cc2ccc3c(c2)OCO3)c1 (stereo unspecified)	-1.1%
COc1ccc(-c2noc(COc3ccc(C)c(C)c3)n2)cc1OC	-10.3%
COC(=O)c1ccc(CSc2n[nH]c(C)n2)o1	-7.9%
Cc1nn(Cc2c(Cl)cccc2Cl)c(C)c1N	-7.8%
Cc1cc(C(=O)CN2C(=O)NC(c3ccccc3)(c3ccccc3)C2=O)c(C)n1Cc1ccccc1	-13.9%
COc1ccccc1NC(=O)Cc1csc(NC(=S)Nc2ccc(C)cc2)n1	-9.0%
C[C@H](O)CO[C@H]1[C@H]2O[C@H]3[C@H](O)[C@@H](O)[C@@H](O[C@H]4[C@H](O)[C@@H](O)[C@@H](O[C@H]5[C@H](O)[C@@H](O)[C@@H](O[C@H]6[C@H](O)[C@@H](OC[C@H](C)O)[C@@H](O[C@H]7[C@H](O)[C@@H](OC[C@H](C)O)[C@@H](O[C@H]8[C@H](O)[C@@H](O)[C@@H](O[C@@H]([C@@H]1O)[C@@H](CO)O2)O[C@@H]8CO)O[C@@H]7CO)O[C@@H]6CO)O[C@@H]5CO)O[C@@H]4CO)O[C@@H]3CO	-6.9%
COc1cccc(C2CC(c3cccs3)Nc3ncnn32)c1 (stereo unspecified)	-26.9%
CCc1ccc(OCC(=O)N(C)CCC#N)c(Br)c1	-4.4%
O=C(NCCNCC(O)COc1ccc(O)cc1)N1CCOCC1 (stereo unspecified)	-14.0%
O=C(O)CCc1ccc(-c2ccc(F)cc2)n1NC(=O)c1ccco1	-17.9%
CC(=O)C1C(=O)CC(C)(O)C(C(C)=O)C1c1ccc(N(C)C)cc1 (stereo unspecified)	0.1%
NC(=O)CN1C(=O)C2C3C=CC(C3)C2C1=O (stereo unspecified)	-15.0%
CCC(NC(=O)c1ccccc1NC(=O)c1ccco1)C(=O)NC1CCCCC1 (stereo unspecified)	4.1%
Cc1c(=O)n(OCc2ccccn2)c2ccccc2[n+]1[O-]	-25.3%
Cc1nnc(N2C(=O)c3cccc4cccc(c34)C2=O)s1	u
CN1CCN(C(=O)/C=C/c2ccc([N+](=O)[O-])cc2)CC1	-3.9%
COc1cc(NCc2ccc3nc(N)nc(N)c3c2C)cc(OC)c1OC	u
C[N+](C)(C)CCN[N@@+]1(C)CCCc2ccccc21	u
O=C(NC1CCCCC1)C(c1ccco1)N(Cc1cccs1)C(=O)Cn1nnc2ccccc21 (stereo unspecified)	-6.2%

Among those listed so far, these have a COOH group:
SMILES	HPGD block
Cc1cc(OCC(=O)O)c2cccc(C)c2n1	-12.1%
Cc1ccc(C(=O)CC(C(=O)O)n2ccc(C)n2)cc1 (stereo unspecified)	0.1%
C#CCOCCOCCOCCNc1nc(N2CCN(C(=O)[C@H]([C@@H](C)CC)n3cc(CCCCN)nn3)CC2)nc(N2CCN(C(=O)[C@H](C)n3cc(CCC(=O)O)nn3)CC2)n1	-7.5%
Cc1ccc(C)c(-n2ccnc2SCC(=O)O)c1	-6.0%
O=C(O)CCc1ccc(-c2ccc(F)cc2)n1NC(=O)c1ccco1	-17.9%

(further entries)
SMILES	HPGD block
CN1CCN(CCCNC(=O)c2cc3c(-c4ccc(Cl)cc4)nn(C)c3s2)CC1	u
O=C(COc1ccc(Cl)cc1)NCc1nnc(SCC(=O)N2CCCCC2)o1	-22.4%
Cc1cc(C)c2c(n1)nn1c(N3CCN(c4ccccc4)CC3)cc(C)nc21	u
CC(=O)c1ccc(OC(=O)c2cccs2)cc1	-5.1%
CC(C)(C(N)=O)N1CCN(c2ncc(C(F)(F)F)cc2Cl)CC1	-5.4%
COC(=O)C1=C(CN2CCN(C)CC2)NC(=O)NC1c1cc(C)ccc1C (stereo unspecified)	-0.2%
COCCn1c(SCC(=O)NCc2cccs2)nnc1-c1ccc(OC)cc1	-7.2%
CCOc1ccc(NC(=O)CCSc2ccc(C)cc2)cc1	-1.2%
CS(=O)(=O)N1CCC2(CC1)CN(Cc1cc(C(F)(F)F)cc(C(F)(F)F)c1)C2	-1.8%
c1ccc(-c2nc(Sc3ncnc4c3cnn4-c3ccccc3)n[nH]2)cc1	u
Cc1ccc(Nc2c(-c3ccc(C)o3)nc3cnccn23)cc1	u
Cc1ccc(-n2nnnc2Sc2nc([N+](=O)[O-])nn2C)cc1C	-0.6%
COC(=O)[C@H](C)NC(=O)Nc1cc(OC)ccc1OC	-7.0%
NS(=O)(=O)c1ccc(NC(=O)CN2CCCCC2)cc1	-10.9%
Cc1nc(NC(=O)/C=C/c2ccc(Cl)cc2Cl)sc1C(=O)N(C)C	u
N=c1c2c(-c3ccccc3)c(-c3ccccc3)n(Cc3ccccc3)c2ncn1CCCn1ccnc1	-16.2%
O=C(OCC(=O)N1CCN(C(=O)c2ccco2)CC1)c1ccccc1Cc1ccccc1	-0.7%
NNC(=O)c1cc2ccccc2cc1O	-9.0%
COc1ccc(Cl)cc1NC(=S)N(CCCN1CCOCC1)Cc1cn(C)c2ccccc12	28.2µM*
COc1ccc(N2CCN(C(=O)CSc3ncnc4c3cnn4-c3ccccc3C)CC2)cc1	-3.1%
O=C(Nc1nc2ccc(F)cc2s1)c1cccc(S(=O)(=O)N2CCc3ccccc32)c1	-26.6%
NC(=S)N=Nc1c(O)n(Cc2ccccc2)c2ccccc12	-8.4%
CC(C)(C)c1[nH]nc2c1C(c1cccnc1)C(C#N)=C(N)O2 (stereo unspecified)	-2.3%
COc1ccccc1NC(=O)C(CCS(C)(=O)=O)N1C(=O)c2ccccc2C1=O (stereo unspecified)	-1.6%
COc1ccc2c(CC(=O)OCC(=O)N3CCc4ccccc43)coc2c1	-3.4%

(listing goes on)
SMILES	HPGD block
O=C(CNc1ccc2ccccc2c1)N/N=C/c1ccc([N+](=O)[O-])o1	-7.9%
COc1ccc(N2CCN(c3oc(-c4ccco4)nc3C#N)CC2)cc1	-13.7%
CC12CCC(C/C1=N\N=C1\NC(=O)/C(=C\c3cccc(Br)c3)S1)C2(C)C (stereo unspecified)	-8.0%
Cc1nn(-c2ccc(F)cc2)c2sc(C(=O)O)cc12	-27.2%
Cc1ccc(NC(=O)C2C3CCCC2C3c2ccccc2)c(C)c1 (stereo unspecified)	-9.3%
COc1ccc(NC(=O)CSCc2ccccc2C)cc1	-5.5%
CCN(CC(=O)Nc1ccc(NC(C)=O)cc1)C(=O)/C=C/c1cccs1	-5.9%
CC(Sc1nnc(NCc2ccccc2)s1)C(=O)Nc1ccc2c(c1)C(=O)c1ccccc1C2=O (stereo unspecified)	14.1µM*
Cc1ccccc1OCC(=O)Nc1sc2c(c1C#N)CCC2	-11.2%
O=C(CN1CCCCC1)Nc1cccc(Br)c1	-21.6%
C=C(CC)C(=O)c1ccc(OCC(=O)O)c(Cl)c1Cl	-26.6%&-15.3%&-17.2%&-14.3%
COc1ccc(OCCn2c(=N)n(CCO)c3ccccc32)cc1	-17.2%
Cc1ccc(C)c(NC(CC(=O)c2ccccc2)C(=O)OCC(=O)c2cccs2)c1 (stereo unspecified)	-4.2%
Cc1cc(C)c(OCC(=O)Nc2ccccc2N2CCOCC2)c(C)c1	-2.3%
C/C=C(/C)C(=O)O[C@@H]1[C@H](OC(C)=O)c2c(ccc3ccc(=O)oc23)OC1(C)C	u
CCOC(=O)c1csc(NNC=O)n1	-6.8%
O=C(CSc1nnc(CNc2ccc(Cl)cc2)o1)Nc1nc2c(s1)CCCC2	-11.6%
COC(=O)CC1C(=O)NCCN1C(=S)NC(=O)C(c1ccccc1)c1ccccc1 (stereo unspecified)	-2.0%
CCOc1ccc(C(CC(=O)O)NC(=O)c2ccco2)cc1OC (stereo unspecified)	-9.5%
CCN1CCc2nc(NC(=O)c3ccccc3)sc2C1	-5.4%
O=C(CCCC(=O)N1CCCc2ccccc21)N1CCCc2ccccc21	-4.3%
O=C1CCCC/C1=C/Nc1ccc(S(=O)(=O)Nc2ncccn2)cc1	-27.4%
Cc1cc(Cl)ccc1OCCCC(=O)N1CCCCC1	6.31µM*
CCOc1cc(C2c3c(oc4cc(C)c(Cl)cc4c3=O)C(=O)N2Cc2ccco2)ccc1O (stereo unspecified)	-7.5%
O=C(Nc1ccc(NC(=O)c2ccco2)nc1)c1cccnc1	-12.4%

Retrieved by compound from the entries so far, six records:
SMILES	HPGD block
O=C(Nc1ccc(Cl)c(Cl)c1)Nc1cc(S(=O)(=O)N2CCOCC2)ccc1N1CCCC1	-21.2%
Cc1cc(OCc2nc(-c3cccnc3)no2)c(C)cc1Br	-9.7%
COCCn1c(SCC(=O)NCc2cccs2)nnc1-c1ccc(OC)cc1	-7.2%
C/C(=N\NC(=O)Cc1ccc(F)cc1)c1ccc(F)cc1	-3.3%
COc1ccc(S(=O)(=O)Nc2ccccc2C)cc1	-1.1%
CN1CCN(S(=O)(=O)c2cccc(C(=O)Nc3sc4c(c3-c3nc5ccccc5[nH]3)CCCC4)c2)CC1	-16.4%

Next compounds
SMILES	HPGD block
CN(C)CC(O)COc1ccc(-c2ccc(C#N)cc2)cc1 (stereo unspecified)	u
CCCCNS(=O)(=O)c1ccc(NC(=O)C2CCCO2)cc1 (stereo unspecified)	-15.2%
CCCC(=O)Nc1nc2ccc(OC)cc2s1	-17.6%
Cc1ccc(C(=O)c2cc([N+](=O)[O-])ccc2N2CC(C)OC(C)C2)cc1 (stereo unspecified)	-5.2%
O=C(Nc1cc(Cl)ccc1O)C1CCCO1 (stereo unspecified)	-9.8%
O=C(CCSc1ccccc1)NCCSCc1ccccc1	14.1µM*
COc1ccnc(CSC(N)=Nc2ccccc2C(F)(F)F)c1	-16.6%
CC(C)(C)c1ccc(CN2C3=NCCCN3c3ccccc32)cc1	-9.5%
COC(=O)C1=C(C(=O)OC)N2C=CC=CC2(C)C(C(=O)OC)=C1C(=O)OC (stereo unspecified)	35.5µM*
CC(C)C1Oc2ccccc2N(CC(=O)NCCCN2C(C)CCCC2C)C1=O (stereo unspecified)	-12.1%
CCOC(=O)c1cc2c(=O)n3ccccc3nc2n(CC(C)C)c1=NC(=O)c1ccco1	u
O=C(O)c1cc(Br)ccc1NN=C1CCCCC1	25.1µM*
Cc1ccc(N=C2NC(=O)/C(=C/c3cn(C)c4ccccc34)S2)cc1C	-9.5%
COc1ccccc1N(CC(=O)Nc1c(C)cccc1C)S(C)(=O)=O	-6.4%
CNC(=S)N/N=C/c1ccc2c(c1)OCCO2	-25.5%
COc1ccc(/C=C/C(=O)Nc2ccc(OC)cc2[N+](=O)[O-])cc1	-4.3%
O=C(OCc1cc2ccccc2[nH]c1=O)c1ccccc1	-14.1%
O=C(CCCCCN1C(=O)CCC1=O)Nc1ccc2c(c1)OCO2	-0.4%
Cc1cnc(CNc2cc(-c3ccoc3)ncn2)cn1	-19.1%
Cc1ccc(NNS(=O)(=O)c2ccc(C)cc2)cc1	3.98µM*
CCN1CCN(C(=O)c2oc(=O)c3ccccc3c2-c2ccc(C)cc2)CC1	1.5%

From PubChem

These rows are one share of the data. The share of hits here may be higher or lower than overall.
